Compound activity (PubChem BioAssay)
Ecoli rRNA inh: reduced GFP signal of wild-type E. coli, primary screen, bacterial rRNA inhibitor project, GFP/RFP fluorescence, OD600, single point. E. coli WT GFP vs humanized-ribosome RFP mutants, 24 h; stronger effect = lower value; DMSO median 0, no signal -100. GFP signal change (wild-type ribosome), % (no concentration beside the values). 350,000 compounds, 1.6% hits. AID 720706, 2013;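 active = significant combined selectivity score with lowered wild-type GFP, culture density cut under 30%, mutant RFP and density less affected; inactive = any of these conditions unmet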; note: one replicate is shown; some compounds called inactive have numbers as strong as hits
FGF22 binding: binders of human FGF22 protein, primary screen, FGF22 synaptogenesis inhibitor project, biophysical, thermal shift, single point. Fibroblast growth factor 22 (Homo sapiens), Q9HCT0. recombinant FGF22 thermal shift, SYPRO orange fluorescence; percent of sucrose octasulfate shift, DMSO zero. calls only at 9.99 µM. 340,000 compounds, 1.5% hits. AID 651658, 2012;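 active = melting point raised past a set limit in the mean and every replicate; three in four hits are not shown here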
Target sequence (Q9HCT0 whole entry, looked up): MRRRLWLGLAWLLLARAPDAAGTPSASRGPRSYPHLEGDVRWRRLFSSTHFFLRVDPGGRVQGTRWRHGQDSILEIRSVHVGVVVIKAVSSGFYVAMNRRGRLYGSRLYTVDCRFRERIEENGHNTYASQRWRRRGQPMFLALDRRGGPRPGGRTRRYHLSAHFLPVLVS
Ecoli rRNA inh OD600: second read-out of Ecoli rRNA inh, no call of its own (marks repeat the call); OD600 change, %; measured here: OD600 growth;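 optical density of the mix in the first replicate; 0 = DMSO median and -100 = no signal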
Ecoli rRNA inh RFP: second read-out of Ecoli rRNA inh, no call of its own (marks repeat the call); RFP signal change, %; measured here: RFP humanized mutant strains;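 first replicate; 0 = DMSO median and -100 = no signal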
* marks the source's active call; other numbers are inactive results; i = inactive.

SMILES | Ecoli rRNA inh | Ecoli rRNA inh OD600 | Ecoli rRNA inh RFP | FGF22 binding
CCOC(=O)N[C@H](C(=O)N1CCC[C@H]1C(=O)NCCc1ccccc1Cl)c1ccccc1 | -15 | -12 | -1.0 | i
Cc1cccc(S(=O)(=O)N2CC[C@@H]3[C@@H](CO)Nc4ccc(-c5ccccc5F)cc4[C@@H]32)c1 | -3 | -10 | 0.6 | i
CN1CCN(C(=O)C[C@@H]2C[C@H]3c4cc(NS(=O)(=O)c5ccc(F)cc5)ccc4O[C@H]3[C@@H](CO)O2)CC1 | 1 | -4 | -1.9 | i
CN1C(=O)c2cc(NC(=O)Nc3ccccc3Cl)ccc2OC[C@H]2O[C@@H](CC(=O)O)CC[C@H]21 | -3 | 14 | -0.2 | i
COC(=O)C[C@@H]1CC[C@@H]2[C@H](COc3ccc(NC(=O)c4cccs4)cc3C(=O)N2C)O1 | 1 | -3 | 0.2 | i
CN1CCN(C(=O)C[C@@H]2C[C@@H]3c4cc(NC(=O)Nc5ccccc5)ccc4O[C@@H]3[C@H](CO)O2)CC1 | 4 | 2 | -1.5 | i
Cc1noc(C)c1NC(=O)N(C)C[C@@H]1OCCCC[C@@H](C)Oc2ccc(NS(=O)(=O)c3cn(C)cn3)cc2C(=O)N([C@@H](C)CO)C[C@H]1C | 6 | 3 | -3.3 | i
C[C@@H]1CCCCO[C@H](CN(C)C(=O)c2ccncc2)[C@@H](C)CN([C@H](C)CO)C(=O)c2cc(NC(=O)CCC(F)(F)F)ccc2O1 | 5 | 6 | -2.4 | i
Cc1cc(Nc2cc(C(F)(F)F)cc(C(F)(F)F)c2)cc(=O)n1-c1cc(C(F)(F)F)cc(C(F)(F)F)c1 | 12 | 12 | 2.6 | i
C[C@H](CO)N1C[C@H](C)[C@@H](CN(C)C(=O)CCC(F)(F)F)OCCCC[C@H](C)Oc2ccc(NS(=O)(=O)c3cccs3)cc2C1=O | -4 | -8 | 2.4 | i
O=C(NCCc1ccccc1Cl)[C@@H]1CCCN1C(=O)[C@@H](NC(=O)N1CCOCC1)C1CCCCC1 | 3 | 3 | 4.7 | i
Cc1ccc(S(=O)(=O)Nc2ccc3c(c2)CC(=O)N([C@H](C)CO)C[C@H](C)[C@@H](CN(C)S(=O)(=O)c2ccc(F)cc2)O3)cc1 | -3 | -2 | 0.9 | i
COCC(=O)Nc1ccc2c(c1)[C@@H]1C[C@@H](CC(=O)NCc3cc(F)ccc3F)O[C@@H](CO)[C@@H]1O2 | -1 | -6 | -1.7 | i
C[C@@H]1CN([C@H](C)CO)C(=O)c2cccc(NC(=O)Nc3ccc4c(c3)OCO4)c2O[C@H]1CN(C)C(=O)Nc1ccc(F)cc1 | -5 | -13 | 0.8 | i
C[C@H](O)[C@@H]1CN2CCc3c([nH]c4c(-c5ccccc5)cccc34)[C@@H]2C[C@@H]1N(C)C(=O)NC1CCCCC1 | -46 | -76 | -8.4 | i
C[C@@H]1CCCCO[C@@H](CN(C)CC2CC2)[C@@H](C)CN([C@H](C)CO)C(=O)c2cc(NC(=O)Nc3ccc(C(F)(F)F)cc3)ccc2O1 | 6 | -12 | 6.2 | i
CSCCC(c1nc2ccccc2[nH]1)n1c(/C=C/c2ccc(Cl)cc2)nc2ccccc21 (centres undefined) | -15 | -24 | 0.0 | i
O=C(C[C@@H]1CC[C@@H]2[C@H](COC[C@@H](O)CN2Cc2ccc(Cl)cc2)O1)NCc1cccc(F)c1 | -5 | -18 | 2.6 | i
C[C@H](O)[C@@H]1C(=O)N2CCc3c([nH]c4ccccc34)[C@@H]2C[C@@H]1N(C)C(=O)OCc1ccccc1 | -5 | -13 | 5.2 | i
C[C@@H]1CN([C@@H](C)CO)C(=O)c2cc(NC(=O)Cc3ccccc3)ccc2O[C@@H](C)CCCCO[C@H]1CN(C)S(=O)(=O)c1cccs1 | -3 | 1 | 0.4 | i

Quoted at random: four compounds from above, in no set order.
SMILES | Ecoli rRNA inh | Ecoli rRNA inh OD600 | Ecoli rRNA inh RFP | FGF22 binding
C[C@@H]1CN([C@H](C)CO)C(=O)c2cccc(NC(=O)Nc3ccc4c(c3)OCO4)c2O[C@H]1CN(C)C(=O)Nc1ccc(F)cc1 | -5 | -13 | 0.8 | i
O=C(C[C@@H]1CC[C@@H]2[C@H](COC[C@@H](O)CN2Cc2ccc(Cl)cc2)O1)NCc1cccc(F)c1 | -5 | -18 | 2.6 | i
COCC(=O)Nc1ccc2c(c1)[C@@H]1C[C@@H](CC(=O)NCc3cc(F)ccc3F)O[C@@H](CO)[C@@H]1O2 | -1 | -6 | -1.7 | i
O=C(NCCc1ccccc1Cl)[C@@H]1CCCN1C(=O)[C@@H](NC(=O)N1CCOCC1)C1CCCCC1 | 3 | 3 | 4.7 | i

Following part
SMILES | Ecoli rRNA inh | Ecoli rRNA inh OD600 | Ecoli rRNA inh RFP | FGF22 binding
CC(C)C[C@H](NC(=O)c1ccc(Cl)cc1Cl)C(=O)N1CCC[C@H]1C(=O)NCc1ccccc1 | -9 | -9 | 8.4 | i
C[C@@H]1CCCCO[C@@H](CN(C)Cc2ccc3c(c2)OCO3)[C@@H](C)CN([C@H](C)CO)C(=O)c2cc(NS(=O)(=O)c3cn(C)cn3)ccc2O1 | 1 | 15 | -1.4 | i
COC(=O)N1C[C@H](Oc2ncccn2)[C@H]2C[C@@H]1c1ccccc1O2 | 12 | 23 | 5.8 | i
COc1cccc(-c2ccc3c(c2)[C@H]2[C@H](CCN2C(=O)CC2CC2)[C@H](CO)N3C)c1 | 0 | -7 | 1.4 | i
CO[C@@H]1CN(C)C(=O)c2cc(NS(=O)(=O)CC(F)(F)F)ccc2OC[C@@H](C)N(Cc2nccs2)C[C@@H]1C | 1 | 0 | 1.7 | i
CNC(=O)C[C@@H]1CC[C@@H]2[C@H](COc3ccc(NC(=O)Cc4cccs4)cc3C(=O)N2C)O1 | 0 | -1 | -2.4 | i
COc1cccc(S(=O)(=O)Nc2ccc3c(c2)C(=O)N(C)[C@@H]2CC[C@@H](CC(=O)O)O[C@H]2CO3)c1 | 2 | 6 | -1.2 | i
COC(=O)C[C@@H]1C[C@@H]2c3cc(NS(=O)(=O)c4ccccc4)ccc3O[C@@H]2[C@H](CO)O1 | 0 | -6 | -0.8 | i
Cc1ccc(S(=O)(=O)Nc2cccc3c2O[C@@H](CN(C)S(=O)(=O)c2ccc(F)cc2)[C@@H](C)CN([C@H](C)CO)C3=O)cc1 | -3 | -2 | 0.9 | i
O=C(NCc1ccccc1)C(c1cccc2ccccc12)n1c(=O)c(-c2ccco2)nc2ccccc21 (centres undefined) | -5 | -2 | 2.5 | i
COCCCNC(=O)[C@@H](Cc1ccccc1)NC(=O)[C@H]1O[C@@H](n2ccc(=O)[nH]c2=O)[C@H](O)[C@@H]1O | -27 | -38 | -2.0 | i
COc1ccc(S(=O)(=O)Nc2ccc3c(c2)C(=O)N([C@H](C)CO)C[C@H](C)[C@H](CN(C)S(=O)(=O)c2ccc(OC)cc2)O3)cc1 | 2 | -14 | 1.7 | i
COC(=O)N1C[C@H](Oc2cccc3ccccc23)[C@H]2C[C@@H]1c1ccccc1O2 | 6 | 8 | -0.4 | i
Cc1ccccc1-c1ccc2c(c1)[C@@H]1C[C@H](N(C)CC3CCCCC3)[C@H]([C@H](C)O)CN1CC2 | -20 | -18 | 6.6 | i
COCC(=O)N1CC[C@@H]2[C@H]1c1cc(-c3cccc(F)c3)ccc1N(C)[C@H]2CO | -1 | -4 | 0.1 | i
CN1CCN(C(=O)C[C@H]2C[C@@H]3c4cc(NS(=O)(=O)c5ccc(F)cc5)ccc4O[C@@H]3[C@@H](CO)O2)CC1 | 2 | 5 | -1.6 | i
Nc1ncnc2c1ncn2[C@@H]1O[C@H](C(=O)N[C@@H](CCc2ccccc2)C(=O)N2CCN(CC(=O)N3CCCC3)CC2)[C@@H](O)[C@H]1O | 11 | 22 | 2.4 | i
C[C@@H]1CCCCO[C@@H](CN(C)S(C)(=O)=O)[C@H](C)CN([C@@H](C)CO)C(=O)c2cc(NC(=O)Nc3ccc(F)cc3)ccc2O1 | -4 | -5 | 3.1 | i
Cc1cc(NCCc2c[nH]c3ccccc23)ccc1Oc1cccnc1 | -53 | -74 | -17 | i
CC(=O)C1=C(C)N(Cc2ccc(Cl)cc2)C(=S)NC1c1cccc(Br)c1 (centres undefined) | 3 | -2 | 5.0 | i

3 structures from above, sorted by length of the SMILES, smallest number first.
SMILES | Ecoli rRNA inh | Ecoli rRNA inh OD600 | Ecoli rRNA inh RFP | FGF22 binding
COC(=O)N1C[C@H](Oc2cccc3ccccc23)[C@H]2C[C@@H]1c1ccccc1O2 | 6 | 8 | -0.4 | i
CN1CCN(C(=O)C[C@H]2C[C@@H]3c4cc(NS(=O)(=O)c5ccc(F)cc5)ccc4O[C@@H]3[C@@H](CO)O2)CC1 | 2 | 5 | -1.6 | i
C[C@@H]1CCCCO[C@@H](CN(C)S(C)(=O)=O)[C@H](C)CN([C@@H](C)CO)C(=O)c2cc(NC(=O)Nc3ccc(F)cc3)ccc2O1 | -4 | -5 | 3.1 | i

(list continues)
SMILES | Ecoli rRNA inh | Ecoli rRNA inh OD600 | Ecoli rRNA inh RFP | FGF22 binding
C=CCN=C1NC(c2ccc(Cl)cc2)C(C(=O)OC)=C(C)N1Cc1cccc(C(F)(F)F)c1 (centres undefined) | -41 | -78 | -15 | i
C[C@@H]1CN([C@H](C)CO)C(=O)c2cc(NS(=O)(=O)c3ccccc3)ccc2O[C@@H](C)CCCCO[C@H]1CN(C)Cc1ccc(C(=O)O)cc1 | 4 | 2 | -1.8 | i
C[C@@H]1CN([C@@H](C)CO)C(=O)c2cc(NC(=O)c3ccncc3)ccc2O[C@@H](C)CCCCO[C@H]1CN(C)C(=O)CCC(F)(F)F | 0 | 5 | 1.3 | i
CN(C(=O)c1cn(C)c2ccccc12)c1ccc(Oc2cccnc2)cc1 | -12 | -34 | -3.2 | i
CCn1cc(CCC(=O)Nc2ccc(Oc3cccnc3)cc2)c2ccccc21 | -9 | -35 | 1.0 | i
C[C@H]1CN([C@@H](C)CO)C(=O)Cc2cc(NC(=O)Nc3ccccc3)ccc2O[C@@H]1CN(C)C(=O)Nc1ccc(C(F)(F)F)cc1 | -1 | -3 | 0.8 | i
COc1ccc(CN2C[C@@]3(O)CC[C@@H](O)[C@@H](OC)[C@@H]3[C@@]2(C)[C@H](O)CC=C(C)C)cc1 | 28 | 23 | 2.3 | i
C[C@@H]1CN([C@@H](C)CO)C(=O)Cc2cc(NC(=O)Cc3ccccc3)ccc2O[C@H]1CN(C)CC1CC1 | -2 | 0 | 0.4 | i
Cc1noc(C)c1NC(=O)N(C)C[C@H]1Oc2ccc(NS(=O)(=O)c3cccs3)cc2CC(=O)N([C@H](C)CO)C[C@@H]1C | 1 | 11 | 0.4 | i
COc1ccc(-c2ccc3c(c2)[C@@H]2[C@@H](CCN2S(=O)(=O)c2ccccc2F)[C@H](CO)N3)cc1 | -3 | -7 | 2.2 | i
C[C@@H]1CCCCO[C@@H](CN(C)Cc2ccc(C(=O)O)cc2)[C@H](C)CN([C@@H](C)CO)C(=O)c2cc(NS(=O)(=O)c3ccccc3)ccc2O1 | -2 | 3 | -3.1 | i
O=C(C[C@@H]1CC[C@H]2NC[C@@H](O)COC[C@@H]2O1)N1CCc2ccccc2C1 | -1 | -1 | 0.3 | i
COC(=O)C1=C(C)N(C)C(=NCc2ccccc2C(F)(F)F)NC1CCc1ccccc1 (centres undefined) | -5 | -2 | 5.7 | i
CN1C(=O)c2cc(NC(=O)Nc3ccccc3Cl)ccc2OC[C@@H]2O[C@H](CC(=O)O)CC[C@@H]21 | -2 | -2 | -0.7 | i
C[C@@H]1CN([C@H](C)CO)C(=O)c2cc(NC(=O)Nc3ccc(C(F)(F)F)cc3)ccc2O[C@@H](C)CCCCO[C@@H]1CN(C)Cc1ccc(C(F)(F)F)cc1 | 3 | 12 | 1.9 | i
COc1cccc(C#Cc2ccc3c(c2)[C@@H]2[C@@H](CCN2C(=O)c2ccccc2F)[C@@H](CO)N3)c1 | 0 | 12 | -1.4 | i
COCC(=O)N1[C@@H]2CN(C(=O)c3ccncc3)c3ccccc3[C@@H]2[C@@H]1CO | 3 | 0 | -0.4 | i
COCCNC(=S)N(C)[C@H]1C[C@H]2c3[nH]c4ccccc4c3CCN2C(=O)[C@H]1[C@H](C)O | -13 | 0 | 1.2 | i
COc1cccc(C#Cc2ccc3c(c2)O[C@@H](CN(C)C(=O)c2ccccn2)[C@H](C)CN([C@H](C)CO)S3(=O)=O)c1 | -10 | -23 | 2.5 | i
CCCNC(=O)C[C@H]1C[C@H]2c3cc(NS(=O)(=O)c4ccc(OC)cc4)ccc3O[C@H]2[C@H](CO)O1 | -7 | -24 | 39 | i
C[C@@H]1CCCCO[C@@H](CN(C)CC2CCCCC2)[C@H](C)CN([C@H](C)CO)C(=O)c2cc(NC(=O)CCC(F)(F)F)ccc2O1 | 2 | 3 | -0.3 | i
CS(=O)(=O)Nc1ccc2c(c1)[C@@H]1C[C@@H](CC(=O)NCc3ccc(-c4ccccc4)cc3)O[C@H](CO)[C@@H]1O2 | 3 | -32 | 28 | i
C[C@@H]1CCCCO[C@H](CN(C)C(=O)Nc2ccccc2)[C@@H](C)CN([C@H](C)CO)C(=O)c2cc(NS(=O)(=O)c3ccc(Cl)cc3)ccc2O1 | 3 | -6 | -2.1 | i

The list is partial (hit frequency here may not be typical).
